# From PubChem BioAssay
# StopGo FLuc – Primary qHTS Assay for Foot and Mouth Disease Virus Antivirals against NCGC Sytravon and CBC Compound Libraries: Firefly Luciferase Signal | HEK cells with a luciferase reporter of 2A StopGo recoding | Potency, µM (top dose mostly 57.5 µM), without a hit: at the top dose signal change, negative = less light | hit rate 0.23% among 120,000 | AID 1745856, 2022; active = well fitted falling curve with a large enough effect; inconclusive = small, poorly fitted or top-dose-only effect; inactive = no such curve, though single readings can be large or run the other way; further: nearly all actives have a fitted effect of over 60% in size; overnight with compound
# StopGo RLuc – Primary qHTS Assay for Foot and Mouth Disease Virus Antivirals against NCGC Sytravon and CBC Compound Libraries: Renilla Luciferase Signal | HEK cells with a luciferase reporter of 2A StopGo recoding | Potency, µM (highest dose often 57.5 µM), inactives show at the top dose signal change, negative = less light | hit rate 0.32% among 120,000; active means well fitted falling curve with a large enough effect; inconclusive means small, poorly fitted or top-dose-only effect; inactive means no such curve, though single readings can be large or run the other way; further: nearly all actives have a fitted effect of over 55% in size; overnight with compound
# * = called active by the depositor; ? = inconclusive; & = joins results of further samples; [ ] = remark or other dose. On the % scale 0 is the no-effect control and ±100 the full control effect; potency means the concentration at half of the fitted maximal effect. An unsorted share of the library; about 0.55% have a hit in one of these screens.
SMILES,StopGo FLuc,StopGo RLuc
COc1ccc(NC(=O)CN(C)S(=O)(=O)c2ccc3nc(C)sc3c2)cc1Cl,15%,-5%
COc1cc(-c2ccc(C)cc2)nc2ccc(C(=O)N3CCC(C(N)=O)CC3)cc12,175%[activator],27%
CCc1ccccc1NC(=O)Nc1ccc2nc(NS(C)(=O)=O)sc2c1,-4%,-6%
Cc1ccc(C(C)NC(=O)Nc2ccc(N3CCOCC3)nc2)o1 (stereo not drawn),13%,-10%
CCCN(CCC)C(=O)CSc1nnc2cc(C)c3cc(C)cc(C)c3n12,-21%,-15%
Cc1cc(C)cc(NC(=O)CN2CCC(C(=O)N3CCCC(C)C3)CC2)c1 (stereo not drawn),-4%,-10%
CCCN(CC)c1ccc(/C=N/NC(=S)Nc2ccc(C)cc2)cc1,17%,46%[activator]
Nc1ncc(S(=O)(=O)N2CCN(c3ccccc3)CC2)cn1,3%,-9%
O=C(CS(=O)(=O)Cc1ccccc1C(F)(F)F)Nc1ccc(F)cc1F,15%,107%[activator]
Cc1cc(NC(=O)CNc2cc(S(=O)(=O)N3CCOCC3)ccc2Oc2ccccc2)no1,-9%,16%
Cc1nn(-c2ncccn2)c2c1C(c1ccc(OCCc3ccccc3)cc1)CC(=O)N2 (stereo not drawn),-8%,-10%
COc1ccccc1NC(=O)c1ccc(NC(=O)c2ccccc2SCC2CCCO2)cc1 (stereo not drawn),19%,33%[activator]
O=C(Nc1nc2c(F)cccc2s1)c1ccc2c(c1)OCCO2,268%[activator],2%
CC(C)c1nnc(NC(=O)c2nc(SCc3ccc(F)cc3)ncc2Cl)s1,-17%,-9%
COc1ccc(NC(=O)c2cc(-c3ccccc3O)no2)cc1,0%,1%

# Fetched one by one from the list above, 5 records:
SMILES,StopGo FLuc,StopGo RLuc
COc1ccc(NC(=O)CN(C)S(=O)(=O)c2ccc3nc(C)sc3c2)cc1Cl,15%,-5%
CC(C)c1nnc(NC(=O)c2nc(SCc3ccc(F)cc3)ncc2Cl)s1,-17%,-9%
Cc1nn(-c2ncccn2)c2c1C(c1ccc(OCCc3ccccc3)cc1)CC(=O)N2 (stereo not drawn),-8%,-10%
CCCN(CCC)C(=O)CSc1nnc2cc(C)c3cc(C)cc(C)c3n12,-21%,-15%
CCc1ccccc1NC(=O)Nc1ccc2nc(NS(C)(=O)=O)sc2c1,-4%,-6%

# The listing continues:
SMILES,StopGo FLuc,StopGo RLuc
CCOc1ccc(CNC2CCCCC2C)cc1 (stereo not drawn),-4%,3%
COc1ccc(OC(=O)CCc2ccc3c(c2)OCCO3)cc1,0%,-6%
CCOc1ccccc1CNC(=O)Cn1cc2c(n1)-c1c(oc(C(=O)N3CCCC3)c1C)CC2,0%,-4%
COc1cc(-c2nnc(COc3nncc4ccccc34)o2)cc(OC)c1OC,16%,5%
CCc1ccccc1NC(=O)Cn1c(=O)n(CCc2ccccc2)c(=O)c2sc3ccccc3c21,13%,9%
Cc1ccc(-c2noc(-c3nnn(CC(=O)Nc4cc(C)cc(C)c4)c3N)n2)cc1,0%,1%
Cc1ccc(C)c(Cn2c3ccccc3c3cnn(CC(=O)NC(C)CCc4ccccc4)c(=O)c32)c1 (stereo not drawn),-19%,6%
Cc1nc2ccccc2nc1SCC(=O)NC(C)c1ccccc1 (stereo not drawn),-21%,-9%
COCCn1c(-n2nc(C)cc2C)nc2c1c(=O)n(Cc1ccccc1)c(=O)n2C,7%,0%
CCOC(=O)c1c(C)[nH]c(C)c1S(=O)(=O)N(C)CC(=O)Nc1ccc(C)c(F)c1,0%,151%[activator]
Cc1cccc(CNC(=O)C2CCC(CNS(=O)(=O)c3ccc4c(c3)CCCC(=O)N4)CC2)c1 (stereo not drawn),-4%,9%
Cc1nc2ccc(C(=O)OCC(=O)NCC(C)C)cc2nc1C,-2%,-16%
O=C(Nc1ccc(Cl)cc1C(=O)c1ccccc1)c1cc(Cl)cc(Cl)c1,-4%,-2%
CC(=O)N1N=C(c2ccc(F)cc2)CC1c1ccc2nccnc2c1 (stereo not drawn),-4%,-13%
Cc1cccc(OCC(=O)OCc2cc(=O)n3nc(C4CCCCC4)sc3n2)c1,-5%,3%
Cc1ccc(NC(=O)CN2C(=O)C(c3ccc(F)cc3)=NC23CCCCCC3)c(C)c1,0%,4%
Cc1cc(C)c2oc(-c3ccc(NC(=O)COc4ccccc4C)cc3)nc2c1,0%,17%
CCC1CN(C(=O)N2CCC(C(=O)NCCc3ccc(C)cc3)CC2)c2ccccc2O1 (stereo not drawn),-19%,-10%
O=C(Nc1ccc(Oc2ccccc2)cc1)c1ccc(F)c(S(=O)(=O)N2CCN(c3cccc(Cl)c3)CC2)c1,?,?
O=C(NCCc1ccccc1)c1cc(-c2cccc(Cl)c2)on1,-6%,-11%
c1cnc2c(c1)ncn2C1CCNCC1,-11%,-13%
Cc1cccc(-c2cc(C(=O)Nc3cccc(C)n3)c3ccccc3n2)c1,7%,-6%
CSc1ccccc1NC(=O)COC(=O)CNC(=O)CC12CC3CC(CC(C3)C1)C2,-3%,-5%
Clc1cccc(CSc2nnc(C3CCNCC3)o2)c1,101%[activator],-12%
Cc1ccccc1CNC(=O)CCNS(=O)(=O)c1c(C)[nH]c(C)c1C(=O)N1CCCCC1,11%,12%
CSc1ccc(-c2nc3cnccn3c2Nc2ccc3c(c2)OCCO3)cc1,110%[activator],27%
Cc1nc(N2CCCC2)ncc1C(=O)NCc1cccc(Cl)c1,25%,25%
COCCc1ccc(OS(=O)(=O)c2ccc(C)cc2C)cc1,0%,10%
O=S(=O)(Nc1ccccc1-c1n[nH]c(C2CC2)n1)c1cc(Cl)ccc1Cl,?,79%[activator]
O=C1O[C@H](CO)[C@@H](O)[C@H](O)[C@H]1O,-20%,-14%
CCOc1cccc(C(=O)Nc2ccc(NC(=O)c3ccc(Br)cc3)cc2)c1,-15%,-16%
COCCN1C(=O)c2n[nH]c(-c3ccco3)c2C1c1ccc(OC)cc1 (stereo not drawn),7%,10%
CCc1cccc2c(C(=O)C(=O)NCc3ccc(OC)cc3)c[nH]c12,2%,2%
O=c1[nH]nc(SCc2nc(-c3ccccc3Cl)no2)n2nc(-c3ccco3)cc12,10%,-7%
Cc1ccc(CNC(=O)C(C)n2ccc3cc(S(=O)(=O)N4CCCC4)ccc32)cc1 (stereo not drawn),-12%,-6%
O=c1cc(CN2CCN(c3ccc(F)cc3)CC2)c2cc(Cl)c(O)cc2o1,14%&12%,-3%&-14%
C[C@]12CCC(=O)C=C1CC[C@@H]1[C@@H]2[C@@H](O)C[C@@]2(C)[C@H]1CC[C@]2(O)C(=O)CO,-4%,7%
COc1ccccc1NS(=O)(=O)c1cccc(C(=O)N2CCc3sccc3C2)c1,19%,233%[activator]
COc1ccc(NC(=O)c2cc(=O)[nH]c3ccccc23)c(OC)c1,18%,7%
Cn1nnnc1SCCCNCc1ccc(-c2ccc(F)c(Cl)c2)o1,-6%,-7%
Nc1ccc(C(=O)O)c(O)c1,16%[11.5 µM],5%
CC(C)[C@H]1/C(=C/C2CC2)N2C(=O)C[C@@H](c3ccccc3)N=C2N1Cc1ccc2c(c1)OCO2,-11%,3%
COC(=O)c1nnn(CC(=O)Nc2ccc(Br)c(C)c2)c1N,0%,-6%
Cc1ccc2c(=O)c(CN3CCC(C)CC3)c(C)[nH]c2c1C,57%[activator],28%
CC1=C(C(=O)Nc2cccnc2)C(c2ccccc2)n2nc(SCc3ccccc3)nc2N1 (stereo not drawn),-11%,-14%

# Profiles, looked up by structure. Order of values: StopGo FLuc, StopGo RLuc
# Nc1ncc(S(=O)(=O)N2CCN(c3ccccc3)CC2)cn1 in the list: 3%, -9%
# COc1cc(-c2ccc(C)cc2)nc2ccc(C(=O)N3CCC(C(N)=O)CC3)cc12 in the list: 175%[activator], 27%
# Cc1nn(-c2ncccn2)c2c1C(c1ccc(OCCc3ccccc3)cc1)CC(=O)N2 (stereo not drawn) in the list: -8%, -10%
# O=c1[nH]nc(SCc2nc(-c3ccccc3Cl)no2)n2nc(-c3ccco3)cc12 in the list: 10%, -7%
# CCC1CN(C(=O)N2CCC(C(=O)NCCc3ccc(C)cc3)CC2)c2ccccc2O1 (stereo not drawn) in the list: -19%, -10%

# The listing picks up, repeating the 7 entries before the break.
SMILES,StopGo FLuc,StopGo RLuc
COc1ccc(NC(=O)c2cc(=O)[nH]c3ccccc23)c(OC)c1,18%,7%
Cn1nnnc1SCCCNCc1ccc(-c2ccc(F)c(Cl)c2)o1,-6%,-7%
Nc1ccc(C(=O)O)c(O)c1,16%[11.5 µM],5%
CC(C)[C@H]1/C(=C/C2CC2)N2C(=O)C[C@@H](c3ccccc3)N=C2N1Cc1ccc2c(c1)OCO2,-11%,3%
COC(=O)c1nnn(CC(=O)Nc2ccc(Br)c(C)c2)c1N,0%,-6%
Cc1ccc2c(=O)c(CN3CCC(C)CC3)c(C)[nH]c2c1C,57%[activator],28%
CC1=C(C(=O)Nc2cccnc2)C(c2ccccc2)n2nc(SCc3ccccc3)nc2N1 (stereo not drawn),-11%,-14%
COc1ccc(CCn2c3c(c(=O)[nH]c2=O)C(NC(=O)c2ccccc2F)(C(F)(F)F)C(=O)N3)cc1OC (stereo not drawn),-17%,-2%
O=C(COC(=O)C(Cc1c[nH]c2ccccc12)NC(=O)c1ccc(Br)cc1)c1ccc(Cl)cc1 (stereo not drawn),-17%,-15%
CCc1noc2nc(C)n(CC(=O)O)c(=O)c12,-4%,-11%
O=C(OCc1ccc(F)cc1)c1ccc(C2Nc3ccccc3S(=O)(=O)N2)cc1 (stereo not drawn),91%[activator],22%
O=C(O)c1ccc(Cc2ccccc2)o1,0%,15%
N#Cc1cc(C(=O)c2ccccc2OCC(=O)Nc2ccc(N3CCCCC3)cc2)cn(C2CC2)c1=O,15%,0%
COc1ccc(-c2nc(Cn3c(=O)cc(C)c4c(C)nn(-c5ccccc5)c43)c(C)o2)cc1OC,-2%,0%
Cc1ccc(C)c(NC(=O)Nc2cc3c(cc2N2CCCCC2)n(C)c(=O)n3C)c1,-13%,-10%
CCCCn1c(CNC(=O)C23CC4CC(CC(C4)C2)C3)nnc1SCC(=O)Nc1ccccc1,-24%,-13%
CC1Sc2ccc(C(=O)OCC(N)=O)cc2NC1=O (stereo not drawn),9%,4%
CC(C)(C)C(=O)COC(=O)c1cc(S(N)(=O)=O)ccc1Br,8%,0%
Cc1ccc(C(CNC(=O)c2cc(-c3ccc4c(c3)OCCO4)on2)N2CCN(C)CC2)o1 (stereo not drawn),51%[activator],-15%
O=C(Nc1c(NC2CCCCC2)c2ccccc2oc1=O)c1cccc(F)c1,6%,-4%
O=C(Nc1ccc(Cl)cc1)c1ccc2c(Cl)c3c(nc2c1)CCCC3,0%,11%
CCC(=O)Nc1ccc(C)cc1-c1nnc(SCC(=O)Nc2ccc(Cl)c(Cl)c2)[nH]c1=O,-3%,9%
Cc1ccc(C)c(NC(=O)CN2C(=O)COc3ccc(Cl)cc32)c1,-13%,-18%
Cc1ccc(C2N=C(N)Nc3nc4ccccc4n32)cc1 (stereo not drawn),8%&10%,-7%&1%
Cc1noc(-c2ccc(-c3noc(-c4cccc(F)c4)n3)cc2)n1,-2%,-13%
C=CCSc1nc2c(c(=O)n(C)c(=O)n2C)n1Cc1ccccc1Cl,5%,-2%
CC(=O)N1CCC(C(=O)NCc2ccccc2)(N(C(=O)c2ccc(C)cc2)c2ccccc2F)CC1,-7%,20%
CCOCCCN1C(=O)c2[nH]nc(-c3ccccc3O)c2C1c1ccc(CC)cc1 (stereo not drawn),-10%,-10%
CCc1ccc(C(=O)CSC(=S)N(C)C)cc1,172%[activator],24%
COc1ccc(C(=O)Oc2ccc(C)cc2C(=O)/C=C/c2ccc(F)cc2)cc1,0%,16%
Cc1nn(CCc2nnc(Nc3ccn(Cc4ccccc4Cl)n3)s2)c(C)c1Cl,?,?
